NS1 function inh: influenza NS1 inhibition; S. cerevisiae slowed by influenza A NS1, growth recovery by OD600; Potency, µM (doses to about 46.1 µM), inactives show at the top dose activity, positive = more growth; 270,000 compounds, 0.4% hits; active means well fitted rising curve with a large enough effect; inconclusive means small, poorly fitted or top-dose-only effect; inactive means no such curve, though single readings can be large or run the other way; also: nearly all actives have a fitted effect of over 50% in size
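S. cerevisiae expressing influenza A NS1, grown in glucose, washed, then diluted 1:100 into pH 6.0 -URA galactose medium with 23 nl compound. Growth recovery read as OD600; NS1-free strain serves as control.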
Cruzain inh noDet: blocks cruzain activity in detergent-free assay | purified cruzain, Z-FR-AMC fluorescence, no detergent | Potency, µM, for the others: max response, negative = inhibition, hits mostly inhibitors | 200,000 compounds, 2.3% hits;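 also: plate controls were enzyme without inhibitor for no effect and buffer without enzyme for full effect; nearly all actives have a fitted effect of over 40% in size; top concentration of the series not given in the record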
Target sequence (P25779 123-467 limits assumed): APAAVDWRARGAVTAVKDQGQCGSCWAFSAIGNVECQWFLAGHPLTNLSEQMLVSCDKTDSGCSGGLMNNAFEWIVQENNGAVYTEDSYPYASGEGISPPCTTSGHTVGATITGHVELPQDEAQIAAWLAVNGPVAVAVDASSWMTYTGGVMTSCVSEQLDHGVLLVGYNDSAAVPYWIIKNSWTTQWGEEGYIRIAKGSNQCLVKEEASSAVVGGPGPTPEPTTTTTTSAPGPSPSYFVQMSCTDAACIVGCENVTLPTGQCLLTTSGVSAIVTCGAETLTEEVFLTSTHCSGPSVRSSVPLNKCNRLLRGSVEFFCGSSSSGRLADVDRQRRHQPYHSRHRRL
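Detergent-free condition (0.00005% Triton X-100) in acetate buffer pH 5.5 with DTT. 1.5 nM enzyme and compound were pre-mixed 15 min, then 2 uM Z-FR-AMC substrate added; reaction progress from fluorescence change between first and third reads (60 s).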
RE007 growth inh: less growth of the S. pombe RE007 Vpr strain; AID 651644; 360,000 compounds, 0.21% hits; Potency, µM (top dose mostly 92.2 µM), without a hit: at the highest dose activity change, negative = less growth; S. pombe RE007 Vpr strain, BacTiter-Glo ATP luminescence, 24 h; control for the full effect not named in the record; active = well fitted falling curve with a large enough effect; inconclusive = small, poorly fitted or top-dose-only effect; inactive = no such curve, though single readings can be large or run the other way;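 also: % is scaled to controls: 0 for no effect and ±100 for the full control effect; nearly all actives have a fitted effect of over 50% in size; the assay follows cell death caused by Vpr and the record does not say whether a fall means rescue or toxicity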
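Fission yeast strain RE007, carrying one chromosomally integrated HIV-1 vpr copy, was seeded at OD 0.01 in PMG+AL medium with 23 nL pinned compound. After 24 h at 30 °C and 99% humidity, viability was read by BacTiter-Glo luminescence.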
SARS PLpro yeast: blocks SARS-CoV papain-like protease in a yeast assay; S. cerevisiae expressing SARS-CoV PLpro, growth rescue; control for the full effect not named in the record; Potency, µM (doses to about 32.9 µM), for the others: at the highest dose activity, positive = growth rescue; 330,000 compounds, 0.19% hits; AID 485353; active means well fitted rising curve with a large enough effect; inconclusive means small, poorly fitted or top-dose-only effect; inactive means no such curve, though single readings can be large or run the other way; also: 0% is about no effect; nearly all actives have a fitted effect of over 55% in size; growth read by luminescence after 48 h
Cruzain Triton: cruzain (T. cruzi) inhibition with detergent; P25779; purified cruzain, Z-FR-AMC fluorescence, 0.01% Triton; Potency, µM, inactives show max response, negative = inhibition, actives largely listed as inhibitors; 200,000 compounds, 0.43% hits;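 also: plate controls were neutral wells for no effect and buffer without enzyme for full effect; nearly all actives have a fitted effect of over 40% in size; top concentration of the series not given in the record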
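Detergent-containing arm of a paired screen for aggregation-based inhibition: 0.01% Triton X-100 present. Cruzain at 1.5 nM cleaved 2 uM Z-FR-AMC at pH 5.5 with 5 mM DTT; AMC fluorescence gain over 60 s measured activity.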
Lassa entry inh: inhibitors of Lassa virus binding or cell entry; Lassa virus pseudotype entry inhibition, cell reporter; control for the full effect not named in the record; Potency, µM (highest dose often 37.9 µM), without a hit: top-dose activity change, negative = inhibition, usual class: inhibitors; 300,000 compounds, 1.2% hits; active means well fitted inhibition curve with a large enough effect; inconclusive means small, poorly fitted or top-dose-only effect, or effect the other way; inactive means flat fitted curve, though single readings scatter; tested in HEK293 cells; also: % is scaled to controls: 0 for no effect and ±100 for the full control effect; nearly all actives have a fitted effect of over 50% in size; luciferase read-out
StopGo reporter: lowers the luciferase signal of an FMDV 2A StopGo reporter; AID 1159524; 410,000 compounds, 1.2% hits; human cells with a luciferase reporter of 2A StopGo recoding; control for the full effect not named in the record; Potency, µM (series often up to 57.9 µM), for inactives: top-dose signal change, negative = less light; active = well fitted falling curve with a large enough effect; inconclusive = small, poorly fitted or top-dose-only effect; inactive = no such curve, though single readings can be large or run the other way; tested in HEK293T cells; also: % is scaled to controls: 0 for no effect and ±100 for the full control effect; nearly all actives have a fitted effect of over 45% in size; luciferase light after 4 h
MARV entry inh: inhibitors of Marburg virus binding or cell entry. Marburg virus pseudotyped entry inhibition, cell reporter; control for the full effect not named in the record; about a third of the inactives were read at about 46 µM. Potency, µM (highest dose often 37.8 µM), inactives show at the top dose activity change, negative = inhibition, hits mostly inhibitors. 300,000 compounds, 1.8% hits; active = well fitted inhibition curve with a large enough effect; inconclusive = small, poorly fitted or top-dose-only effect, or effect the other way; inactive = flat fitted curve, though single readings scatter; tested in HEK293 cells; about a fifth of its hits are not listed in these tables; also: % is scaled to controls: 0 for no effect and ±100 for the full control effect; luciferase read-out
Active calls of the source: *; ? = inconclusive; . = not tested or not shown; & = joins results of further samples; [ ] = another dose, or the depositor's remark. Unless noted, calls follow the shape of the dose curve; as a rule, active = well fitted curve in the direction sought with a large enough effect; inconclusive = small, poorly fitted or top-dose-only effect, or another doubt; inactive = no such curve, though single readings can be large; an effect the other way counts as inactive or inconclusive. Potency is read from the fitted curve at half-maximal effect.

#1 COc1ccc(NC(=O)c2ccc3c(SCC(=O)O)c4c(nc3c2)CCC4)c(OC)c1
#2 N#Cc1ccccc1S(=O)(=O)N1CCN(C(=O)c2cc(-c3ccccc3)nn2-c2ccccc2)CC1
#3 CN(C)/C(=N\S(=O)(=O)c1ccccc1)c1ccc([N+](=O)[O-])cc1
#4 Cc1c(C(=O)NCCCN2CCOCC2)sc2nc(-c3ccc(F)cc3)cn12
#5 COc1cc(C2C(C(C)=O)=C(C)Nc3ncnn32)ccc1O (stereo not given)
#6 O=C(NN=C1CCCCCC1)c1ccc(Br)o1
#7 COc1ccc(C(=O)OCC(=O)NCC2CCCO2)cc1[N+](=O)[O-] (stereo not given)
#8 Cc1ccc(Cc2cnc(NC(=O)c3ccc4c(c3)CC(c3ccccc3)OC4=O)s2)cc1 (stereo not given)
compound no.	1	2	3	4	5	6	7	8
NS1 function inh	.	8.5%	10.6%	-1.5%	6.9%	4.8%	1.5%	.
Cruzain inh noDet	?	.	-4.3%	-28.1%	1.6%	-2.7%	.	-6.8%
RE007 growth inh	.	0.4%	2.3%	3.8%	-9.4%	1.3%	17.8%	.
SARS PLpro yeast	.	1.8%	-19.0%	13.7%	2.2%	-10.7%	1.6%	.
Cruzain Triton	-16.5%	.	-0.2%	-15.4%	-1.3%	-0.2%	.	6.1%
Lassa entry inh	-1.8%[46.1 µM]	-31.9%	7.7%	20.6%	-11.5%	14.5%	.	18.6%[46.1 µM]
StopGo reporter	-10.0%	?	15.9%	0.0%	-16.0%	0.0%	-1.7%	0.0%
MARV entry inh	19.8%[46.1 µM]	5.1%	?	-29.8%	?	1.5%	.	2.3%[46.1 µM]

#9 COc1ccc(NC(=O)CSc2nnc(CNc3ccc(F)cc3)o2)c(OC)c1
#10 COC(=O)Nc1ccc(SCC(=O)c2ccccc2)cc1
#11 Clc1ccc2nc(CSc3nc4ccccc4o3)cn2c1
#12 O=C(N/N=C/c1cccc(O)c1)c1csc2ccccc12
#13 COc1ccc(CCNC(=O)CCCn2c(=O)c3cccn3c3cccnc32)c(OC)c1
#14 O=S(=O)(NCCc1cn2ccsc2n1)c1ccc(Cl)cc1
#15 CC1=CS(=O)(=O)CC1Sc1nc2ccccc2[nH]1 (stereo not given)
#16 O=C(NCc1cccs1)C(Cc1ccccc1)n1cccc1 (stereo not given)
compound no.	9	10	11	12	13	14	15	16
NS1 function inh	-3.1%	.	4.3%	-55.3%	13.3%	.	12.8%	-8.2%
Cruzain inh noDet	-3.4%	.	-6.2%	0.4%	.	2.1%	4.6%	-4.5%
RE007 growth inh	4.5%	10.8%	-3.7%	-7.1%	10.6%	.	12.3%	1.8%
SARS PLpro yeast	-2.2%	-4.2%	-8.4%	8.4%	0.7%	.	28.9%	3.1%
Cruzain Triton	-0.3%	.	-16.3%	-2.4%	.	-1.6%	-0.7%	1.0%
Lassa entry inh	2.0%	14.3%[46.1 µM]	-23.2%	20.1%	.	-1.7%[46.1 µM]	3.2%	.
StopGo reporter	-5.0%	16.4%	-13.0%	-19.6%	-15.0%	16.3%	-8.6%	-23.0%
MARV entry inh	-1.5%&-1.5%	6.0%[46.1 µM]	0.9%&-25.5%	?	.	.	?	.

#17 COc1cccc(NC(=O)N(Cc2c[nH]c3ccccc23)C2CCCCCC2)c1
#18 Cc1ccc(NC(=O)c2cc(-c3ccccc3O)n[nH]2)cc1C
#19 CCc1cccc(NC(c2ccccc2)c2nnc(-c3ccccc3F)o2)c1 (stereo not given)
#20 CCOc1cc(CNCCO)cc(Br)c1OCc1ccccc1
#21 CCOC(=O)C1CCN(CCC(=O)Nc2cccc(Cl)c2C)CC1
#22 Cc1nn(-c2ccccc2)c2nc(N)c(C#N)c(-c3ccc(F)cc3)c12
#23 Cc1cc(OCC(=O)N2CCCCCC2)ccc1[N+](=O)[O-]
#24 CCOc1ccccc1NC(=O)Cc1c(F)cccc1Cl
compound no.	17	18	19	20	21	22	23	24
NS1 function inh	.	2.9%	.	-0.9%	-2.6%	-29.1%	-4.4%	6.3%
Cruzain inh noDet	-21.5%	.	-3.9%	.	4.9%	-11.4%	-2.7%	-2.9%
RE007 growth inh	.	3.4%	.	8.2%	1.7%	-20.9%	1.5%	-1.3%
SARS PLpro yeast	.	-0.2%	.	-0.5%	2.5%	-1.0%	-4.1%	1.1%
Cruzain Triton	-16.7%	.	-7.7%	.	0.8%	-15.8%	-2.7%	-1.8%
Lassa entry inh	-27.6%[46.1 µM]	-6.0%[46.1 µM]	6.6%[46.1 µM]	?	2.8%	-19.5%	5.5%	-0.7%
StopGo reporter	-1.9%	21.5%	11.7%	-7.6%	-0.5%	?	28.4%	-11.3%
MARV entry inh	-32.4%[46.1 µM]	1.0%[46.1 µM]	-5.0%[46.1 µM]	?	14.4%	-12.7%	?	0.5%

One compound at a time, as listed above. Screens in order: NS1 function inh	Cruzain inh noDet	RE007 growth inh	SARS PLpro yeast	Cruzain Triton	Lassa entry inh	StopGo reporter	MARV entry inh
`CCc1cccc(NC(c2ccccc2)c2nnc(-c3ccccc3F)o2)c1` (stereo not given) reads .	-3.9%	.	.	-7.7%	6.6%[46.1 µM]	11.7%	-5.0%[46.1 µM]
`CCOc1cc(CNCCO)cc(Br)c1OCc1ccccc1` reads -0.9%	.	8.2%	-0.5%	.	?	-7.6%	?
`Cc1cc(OCC(=O)N2CCCCCC2)ccc1[N+](=O)[O-]` reads -4.4%	-2.7%	1.5%	-4.1%	-2.7%	5.5%	28.4%	?

(more compounds)
#25 CCOc1ccc(-n2nc3ccc(NC(=O)COc4ccccc4C)cc3n2)cc1
#26 Cn1c(C(=O)O)cc2cc(F)ccc21
#27 COCC(=O)N1CCCC(C(=O)c2ccc(C(F)(F)F)cc2)C1 (stereo not given)
#28 COc1ccc(C(=O)Nc2cccc(NC(C)=O)c2)cc1OC
#29 COc1ccc(C(CNC(=O)c2cccc(S(=O)(=O)Nc3ccc(C)cc3)c2)N2CCCCC2)cc1 (stereo not given)
#30 Cc1c(-c2ccccc2)n(-c2ccccc2O)c2nc3c(c(=O)n(C)c(=O)n3C)n12
#31 COc1cccc(N/C(SCc2ccccc2Cl)=C(/C#N)C(=O)NCc2cccs2)c1
#32 Cc1cccc(NC(=O)C2CCCN(c3nc4ccccc4s3)C2)c1C (stereo not given)
compound no.	25	26	27	28	29	30	31	32
NS1 function inh	.	-90.9%	-1.7%	1.9%	.	.	2.4%	.
Cruzain inh noDet	-8.0%	7.5%	.	-2.3%	.	-11.6%	-24.6%	4.1%
RE007 growth inh	.	19.2%	1.6%	11.0%	2.2%	.	-18.0%	.
SARS PLpro yeast	.	-8.8%	27.1%	14.7%	.	.	21.0%	.
Cruzain Triton	-0.7%	2.3%	.	-1.2%	.	1.2%	-3.0%	-3.1%
Lassa entry inh	-18.0%[46.1 µM]	-14.8%	.	13.1%	?	?	?	5.1%[46.1 µM]
StopGo reporter	-9.6%	16.9%	-10.0%	1.0%	4.9%	25.1µM*	12.7%	-12.6%
MARV entry inh	.	15.7%	.	5.2%	?	?	?	-2.1%[46.1 µM]

#33 CC(=O)OC1COC(N2CCc3cc(Br)c([N+](=O)[O-])cc32)C(OC(C)=O)C1OC(C)=O (stereo not given)
#34 CC(O)CSc1nc2c(c(=O)n(C)c(=O)n2C)n1CCCc1ccccc1 (stereo not given)
#35 CCOC(=O)c1ccc(N2C(=O)CC(N3CCN(Cc4ccccc4)CC3)C2=O)cc1 (stereo not given)
#36 O=C(NCCCN1CCC(Cc2ccccc2)CC1)C1CCC(=O)N1C1CCCC1 (stereo not given)
#37 Cc1cccc(Cn2c(O)c(N=NC(=S)Nc3ccccc3F)c3ccccc32)c1
#38 Cc1ccc(C(C)C)c(OCCCn2c(=O)oc3ccc(C)cc32)c1
#39 Cc1ccc(C(=O)NN2C(=O)C3C4C=CC(C4)[C@@H]3C2=O)cc1 (stereo not given in full)
#40 COc1ccc(-c2nc(-c3ccccc3)nc(Cl)c2C#N)cc1
compound no.	33	34	35	36	37	38	39	40
NS1 function inh	-11.2%	4.4%	-13.5%	-3.1%	.	.	1.0%	19.2%
Cruzain inh noDet	?	.	-9.4%	-13.2%	.	-4.8%	.	-0.5%
RE007 growth inh	2.2%	-4.7%	-23.5%	-13.3%	2.3%	.	4.7%	3.3%
SARS PLpro yeast	4.1%	-0.3%	-7.9%	3.7%	3.9%	.	-4.6%	-3.3%
Cruzain Triton	-6.1%	.	0.3%	0.5%	.	-10.4%	.	6.0%
Lassa entry inh	-5.2%	.	-0.5%	.	-25.1%	14.8%[46.1 µM]	.	?
StopGo reporter	0.0%	-20.6%	-7.1%	-18.9%	-4.7%	-22.5%	26.6%	0.0%
MARV entry inh	?	.	4.4%	.	?	-19.4%[46.1 µM]	.	?

#41 Cc1cc(NS(=O)(=O)c2ccc(NC(=O)c3ccoc3C)cc2)nc(C)n1
#42 CCC(C)[C@H](NC(=O)NCc1ccccc1Cl)C(=O)O (stereo not given in full)
#43 O=C(O)COc1ccc(/C=C/c2nc3ccc([N+](=O)[O-])cc3s2)cc1
#44 COCCN(Cc1ccc(C)c(Br)c1)S(=O)(=O)c1ccc2[nH]c(=O)ccc2c1
#45 O=C(CCC(=O)OCCCC(F)(F)C(F)(F)F)Nc1ccccc1
#46 Cc1c(C(=O)OCC(=O)Nc2c(C)n(C)n(-c3ccccc3)c2=O)cccc1[N+](=O)[O-]
#47 O=C(OCC(=O)N1CCCc2ccccc21)c1cccnc1Cl
compound no.	41	42	43	44	45	46	47
NS1 function inh	-3.8%	5.5%	-0.9%	.	-7.1%	-1.5%	-2.1%
Cruzain inh noDet	-0.6%	-15.1%	.	-0.6%	16.5%	.	-0.3%
RE007 growth inh	4.4%	15.6%	-13.5%	.	-10.1%	5.6%	7.3%
SARS PLpro yeast	8.3%	1.7%	-0.3%	.	-5.7%	-3.7%	9.0%
Cruzain Triton	4.8%	1.6%	.	-2.6%	2.3%	.	-1.2%
Lassa entry inh	-0.7%	6.7%	.	?	0.0%	-0.5%	.
StopGo reporter	40.0%[activator]	21.6%	2.5%	-31.8%	19.7%	-13.8%	23.3%
MARV entry inh	1.2%	-0.6%	.	.	26.3%	0.3%	1.8%
